Screening data (PubChem)
eIF4H inh: human eIF4H binding inhibitors, primary screen, translation initiation inhibitor project, biochemical, uHTS, fluorescence polarization; inhibition, % at 35 µM; Eukaryotic translation initiation factor 4H (Homo sapiens), Q15056; 0.94% of 290,000 active; eIF4H fluorescence polarization binding assay; AID 2012, 2009;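 active means 50% or more with normal probe brightness, or confirmed in later tests; inconclusive means above 50% with abnormal brightness, or retests that disagree; inactive means below 50% or failed in later tests; about a fifth of its hits are not listed in these tables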;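 further: calls also rest on retests at 20 µM and on dose response follow-up; 0% = protein and probe with vehicle and 100% = probe without protein; strong numbers were not always called active; many hits fall short of the cut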
Rce1 inh: yeast Rce1p protease inhibitors, primary screen, biochemical, fluorescence, cell-free homogeneous | CAAX prenyl protease 2 (Saccharomyces cerevisiae (strain ATCC 204508 / S288c)), Q03530 | yeast membranes, quenched prenylated peptide cleavage fluorescence | calls only | 0.27% of 290,000 active;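 active means fall in fluorescence gain of 50% or more versus controls, with final raw signal at or below 3038400; inconclusive means same 50% fall but final raw signal above 3038400; inactive means fall in fluorescence gain under 50%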;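 further: plate controls were neutral control wells for no effect and wells lacking membranes for full effect; tested at 10 µM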
Target sequence (Q03530 whole entry, looked up): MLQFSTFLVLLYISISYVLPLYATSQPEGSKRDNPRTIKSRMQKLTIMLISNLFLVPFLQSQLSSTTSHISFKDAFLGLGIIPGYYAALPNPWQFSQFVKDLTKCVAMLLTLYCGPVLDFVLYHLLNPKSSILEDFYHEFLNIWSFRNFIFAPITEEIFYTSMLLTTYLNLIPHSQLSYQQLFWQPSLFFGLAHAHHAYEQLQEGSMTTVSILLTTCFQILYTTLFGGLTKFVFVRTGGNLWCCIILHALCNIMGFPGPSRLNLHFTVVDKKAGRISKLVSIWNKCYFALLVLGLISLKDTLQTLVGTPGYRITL
UUG fidelity: modulators of yeast start codon fidelity, primary screen, whole organism, S. cerevisiae, single point, plate reader; S. cerevisiae UUG-firefly luciferase reporter, luminescence/redox ratio; activity score, % at 18.7 µM; 0.13% of 350,000 active;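 active means replicate mean at a twofold rise or more, about +100% in these data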;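 further: firefly luciferase made from a UUG start codon reports start codon fidelity; reporter light over untreated wells divided by growth signal over untreated wells; some hits fall short of that in this replicate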
MT1-MMP act inh: blockers of MT1-MMP proenzyme processing, primary screen, HT1080 RFP-PRO-GFP cells, GFP/RFP fluorescence; GFP/RFP ratio fluorescence, overnight; percent of plate control window, DMSO zero; GFP/RFP ratio change, % at 20 µM; Matrix metalloproteinase-14 (Homo sapiens), P50281; 0.061% of 360,000 active;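 active means GFP/RFP ratio change of at least 30% with cell ATP level not reduced by more than half and red fluorescence within 50% of control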; further: strong numbers were not always called active
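Material – HT1080 RFP-PRO-GFP cells · Control set – DMSO wells and RFP-L50D-GFP cells · Incubation – overnight cell settling, then overnight compound exposure, 37 °C, 5% CO2 · Compound dosing – single-point 20 µM compound, 1% DMSO · Read-out – GFP/RFP fluorescence ratio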
CSC inhib: cancer stem cell viability inhibitors, primary screen, luminescence | inhibition, % at 7.5 µM | 1.1% of 300,000 active | cancer stem cell-like cells viability;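 active means mean at 75% or more and at least half the replicates too; inconclusive means mean and replicates disagree; tested in HMLE shEcad cells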;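 further: 0% = median of negative and 100% = median of positive control wells; the first replicate is given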
HIV Env fusion: inhibitors of HIV-1 Env-driven cell-cell fusion, primary screen, HeLa-JRFL effector, CEM21 target cells, luciferase; inhibition, % at 12.3 µM; 1.1% of 360,000 active; AID 651610, 2012;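 active means mean replicate inhibition score of at least 50 and every replicate individually at or above 50; inconclusive means only one of the two criteria met; inactive means mean below 50 and not all replicates reaching 50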;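 further: 0% = plate neutral controls and 100% = maraviroc near 300 nM; one replicate is shown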
PABP polyA inh: PABP poly(A) RNA binding inhibitors, primary screen, biochemical, fluorescence polarization, uHTS; AID 2014, 2009; inhibition, % at 35 µM; 1% of 290,000 active;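 active means 50% or more with normal probe brightness, or confirmed in later tests; inconclusive means above 50% with abnormal brightness, or retests that disagree; inactive means below 50% or failed in later tests; about a fifth of its hits are not listed in these tables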;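 further: calls also rest on retests at 20 µM and on dose response follow-up; controls were probe without protein and protein plus probe with vehicle; some compounds called inactive have numbers as strong as hits; many hits fall short of the cut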
eIF4H inh retest: further read-out of eIF4H inh, marked with its call; inhibition, %; compound at 20 µM; confirmation average;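 mean of two retest wells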
PABP polyA inh retest: second read-out of PABP polyA inh, no call of its own (marks repeat the call); inhibition, %; compound at 20 µM; confirmation repeats;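 mean of two retest wells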
MT1-MMP act inh RFP: second read-out of MT1-MMP act inh, no call of its own (marks repeat the call); RFP signal change, %; measured here: RFP expression control read;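 0 = vehicle wells; hits needed this value within 50% of zero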
The depositor's hits bear a star; i = inactive; ? = inconclusive; . = no result given. No enrichment for hits; any-hit rate near 2.9%.

SMILES	eIF4H inh	Rce1 inh	UUG fidelity	MT1-MMP act inh	MT1-MMP act inh RFP	CSC inhib	HIV Env fusion	PABP polyA inh	others
Cn1c(-c2ccc(Cl)nc2)nc2ccccc21	-2	i	-5	3	7	1	0	14
COc1ccccc1CNc1nc(NCc2ccc3occc3c2)c2sccc2n1	.	.	22	-3	-24	.	58*	.
Cc1[nH]c(C)c2c(=O)n(-c3ccccc3)ncc12	-8	i	-3	.	.	14	8	-3
C=CCN(CC=C)CCOc1ccc2ccccc2c1	6	i	.	4	5	8	-1	15
C=CCOC(=O)C1=C(C)Nc2[nH]c(=O)[nH]c(=O)c2C1c1ccccc1 (stereo unspecified)	0	i	.	-4	1	-10	-9	16
Cc1cc(NC(=O)CSc2nc(-c3ccccc3)c(C#N)c(=O)[nH]2)no1	-2	i	-13	-1	-1	.	8	18
O=C1CS/C(=C/C(=O)c2ccccc2)N1	7	i	-2	0	8	-2	-36	-8
Cc1cc(C)nc(N/N=C/c2ccccc2OCc2ccc(Br)cc2)n1	19	i	-27	6	6	7	-23	-2
O=[N+]([O-])/C(C(Cl)=C(Cl)Cl)=C(/Sc1ccccc1)N1CCCCC1	-10	i	.	-1	2	1	7	-2
Cc1nccn1CCC(=O)O	4	i	-13	-1	5	-6	.	7
O=[N+]([O-])c1ccc(C=NN2CCNC2=S)o1	.	.	21	2	-12	.	-13	.
Cc1ccc2nc3c(cc2c1)c(NS(=O)(=O)c1ccccc1)nn3CC(C)C	-13	i	-5	3	8	2	.	-4
CCOC(=O)c1c(N)n[nH]c1-c1ccccc1	4	i	-10	0	-1	-4	.	-5
Cc1ccc(/C=N/N2CCN(C3c4ccccc4-c4ccccc43)CC2)o1	-8	i	.	4	3	4	15	-11
COc1cc(C(=O)NC2CCCc3ccccc32)cc(OC)c1C (stereo unspecified)	4	i	21	-20	-16	-1	30	0
S=C(NCCN(C1CCCCC1)C1CCCC1)Nc1cccc(Cl)c1	-7	i	-15	-12	-8	34	2	-7
COc1cc2c(cc1OC)C(C)N(C(=O)c1cc(Cl)nc(Cl)c1)CC2 (stereo unspecified)	2	i	-3	0	-11	42	-18	5
COc1cc(C(=S)N2CCCC2)ccc1OCc1ccccc1	-13	.	-9	4	-7	-14	-22	-5
CC(=O)N1c2ccc(S(=O)(=O)NCc3ccccc3Cl)cc2CC1C (stereo unspecified)	-4	i	-10	0	-6	-11	21	6
CCOC(=O)C(C)(C)Sc1nc2c(cnn2-c2ccc(C)cc2)c(=O)[nH]1	-6	i	-4	-5	-7	-6	-10	-2
Cn1c(-c2ccc(Cl)cc2)cnc1NCc1cc2c(cc1[N+](=O)[O-])OCO2	1	i	-15	6	-1	16	-18	2
O=C(COC(=O)c1ccc(Cl)cc1[N+](=O)[O-])NCc1ccco1	.	.	-8	-1	0	-9	-5	.
O=C(O)c1ccc(N2C(=O)CC(N3CCN(c4cccc(C(F)(F)F)c4)CC3)C2=O)cc1 (stereo unspecified)	-4	i	-27	3	5	-12	12	-4
COc1ccc(CC(=O)OCC(=O)Nc2ccc3c(c2)OCCO3)cc1OC	1	i	.	-4	2	2	.	-10
Cc1ccccc1OCC(=O)Nc1ccc(N2CCOCC2)cc1N1CCOCC1	.	.	7	2	-2	.	1	.
O=C(NCc1ccco1)c1cc2n(n1)C(C(F)(F)F)CC(c1ccc(Cl)c(Cl)c1)N2 (stereo unspecified)	0	i	-19	1	-12	46	-37	0
CCOC(=O)Cc1nnc(Nc2ccc(C(=O)NC)cc2)c2ccccc12	2	i	.	1	1	-5	-3	-3
CCN(CC)C(=O)CSc1nc2ccccc2c(=O)n1-c1cccc(OC)c1	-5	i	-6	10	-3	-10	-16	-9
O=C(OCc1nc2ccsc2c(=O)[nH]1)c1ccco1	.	i	.	-1	-2	-8	-16	.
O=[N+]([O-])c1ccccc1CNCCCCCO	.	.	-21	2	7	-7	-7	.
Cc1nc(C(=O)Nc2ccccc2Cl)cc2c1[nH]c1ccccc12	-1	i	-9	-3	0	6	-19	-8
CCS(=O)(=O)Nc1ccc(NC(C)=O)cc1	9	i	-15	-2	0	-17	.	-3
C/C(CC(=O)Nc1ccccn1)=N\NC(=O)c1cnccn1	-2	i	.	1	9	-3	1	-6
CC1(c2ccccc2)NC(=O)N(Cc2ccc([N+](=O)[O-])cc2)C1=O (stereo unspecified)	-12	i	-14	-1	-6	7	.	-13
CN(C)c1ccc(NC(=O)Nc2cccc(Cl)c2)cc1	-2	i	-26	5	2	40	-190	13
CCOC(=O)c1cnn2cc(-c3[nH]ncc3[N+](=O)[O-])cnc12	-6	i	.	0	5	-9	-8	0
COc1ccc(OC)c(NC(=O)C2CCCN2C(=O)NC2CCCCC2)c1 (stereo unspecified)	-10	i	3	2	3	2	5	3
CCc1ccccc1NC(=S)NCC1CCN(c2ccc(OC)cc2)C1 (stereo unspecified)	-11	i	-11	2	-3	0	-10	-8
CCCN(CC(=O)Nc1ccccc1OC)C(=O)c1ccc(S(=O)(=O)Nc2ccccc2OC)cc1	.	.	5	3	0	.	28	.
Cc1ccc(NC(=O)COC(=O)CN2CCSC2=O)cc1F	.	.	-3	1	5	.	-50	.
CCC1CCCCN1C(=O)CSc1nnc(-c2ccco2)o1 (stereo unspecified)	2	.	-28	3	1	-4	-1	9
CCc1ccc(NC(=S)Nc2ccc3[nH]c(=O)[nH]c3c2)cc1	1.7*	i	-32	14	6	-7	-3	72*	eIF4H inh retest=58*;PABP polyA inh retest=66*
O=C(Cc1coc2cc3c(cc12)CCC3)NCC1(N2CCCCC2)CCCCC1	-15	i	.	-4	-1	1	38	-6
COc1ccccc1C(=O)Oc1ccc2ccc(=O)oc2c1	-12	i	-9	.	.	8	4	-4
COc1ccc(C(=O)N[C@H](C(=O)NCC2CCCCC2)C(C)C)cc1	1	i	-4	-16	-10	-14	-44	-3
COc1ccc(C(=O)O)nc1C	-3	i	-1	-3	3	1	2	8
Cc1ccccc1S(=O)(=O)N1[C@@H](c2ccccc2)C(C(=O)O)=CC[C@H]1c1ccc(Cl)cc1	.	.	-6	4	5	-5	17	.
Cc1ccccc1NC(=O)c1ccccc1NC(=O)c1cccs1	-10	i	11	-3	-2	.	-8	3
COc1ccccc1C(=O)Nc1nc(-c2ccc3c(c2)OCCO3)cs1	-14	i	-1	1	1	20	-33	4
CCCNC(=O)NS(=O)(=O)c1cnccc1Sc1ccc(Cl)c(Cl)c1	7	i	0	4	4	-6	.	-5
CCc1nnc(NC(=O)c2ccc(S(=O)(=O)N3CCOCC3)cc2)s1	-6	i	-5	1	1	-3	-42	0
COc1ccc(OC)c(NC(=O)C2(C)CCN2C(=O)CC2CC2)c1 (stereo unspecified)	.	.	-10	-5	0	.	29	.
O=C(/C=C/c1ccco1)N1CCN(S(=O)(=O)/C=C/c2ccccc2)CC1	23	i	0	2	-1	-5	12	9
Oc1[nH]c2ccccc2c1N=Nc1ccc(F)cc1	?	i	.	0	1	7	-108	-3
COc1nccnc1NS(=O)(=O)c1ccc(N=Cc2c(C)[nH]n(-c3ccccc3)c2=O)cc1	2	i	-8	4	3	-1	.	-18
COC(=O)c1ccc2nc(-c3ccc(OC)c(OC)c3)c(Cc3ccccc3OC)n2c1	.	.	30	-2	3	.	6	.
NC(=O)CC(c1ccccc1)c1ccc2c(c1)OCO2 (stereo unspecified)	-4	i	-19	0	0	-11	-2	-1
CC(C)(C)NC(=O)c1ccc2c(c1)C(=O)N(C1CCCCC1)C2=O	-4	i	-13	-15	-16	-4	-9	-1
N#Cc1ccc(Nc2nc(-c3ccc(O)cc3O)cs2)cc1C(F)(F)F	.	.	-3	6	-14	85*	.	.
O=C(CSc1nnnn1-c1cccc2ccccc12)N1CCOCC1	-9	i	18	4	1	-4	-49	-5

The closing 3 records of the part before open the next one.
SMILES	eIF4H inh	Rce1 inh	UUG fidelity	MT1-MMP act inh	MT1-MMP act inh RFP	CSC inhib	HIV Env fusion	PABP polyA inh	others
CC(C)(C)NC(=O)c1ccc2c(c1)C(=O)N(C1CCCCC1)C2=O	-4	i	-13	-15	-16	-4	-9	-1
N#Cc1ccc(Nc2nc(-c3ccc(O)cc3O)cs2)cc1C(F)(F)F	.	.	-3	6	-14	85*	.	.
O=C(CSc1nnnn1-c1cccc2ccccc12)N1CCOCC1	-9	i	18	4	1	-4	-49	-5
COc1ccc(Cl)cc1-c1nc(SCC(=O)NC(C)C(C)C)n[nH]1 (stereo unspecified)	-10	i	-14	0	2	-8	9	2
NC(=O)CSC1=N/C(=C\c2ccco2)C(=O)N1c1ccc(OC(F)F)cc1	42	i	.	-1	3	-2	3	2
CC(C)c1ccc(/C=C/C(=O)NC(=S)NN2CCOCC2)cc1	-1	i	-12	-1	1	4	4	7
Cc1ccc2c(c1)cc(CN(Cc1ccco1)C(=O)N1CCOCC1)c1nnnn12	12	i	7	-5	0	-7	9	-2
CCOCCCNCC(=O)Nc1cc(S(=O)(=O)N2CCOCC2)ccc1N1CCOCC1	.	.	-13	-2	4	-6	6	.
Cc1oc(-c2ccccc2Cl)nc1CS(=O)(=O)CC(=O)NCCc1ccccc1	-1	i	35	-10	-1	-3	-5	1
COCCNC(=S)NNC(=O)c1cccs1	-7	i	-22	3	5	13	6	7
O=C(CSc1ccccn1)N1CCNC1=O	.	.	.	1	-1	-12	1	.
O=c1[nH]c(-c2ccc(O)cc2)nc2scc(-c3cccs3)c12	-2	i	-16	-4	-3	46	-60	14
CC(OC(=O)c1cccc([N+](=O)[O-])c1)C(=O)NCc1ccc2c(c1)OCO2 (stereo unspecified)	-8	i	-18	-1	-2	.	-8	-26
Cn1c(SCC(=O)NCC2CCCO2)nc2scc(-c3ccccc3)c2c1=O (stereo unspecified)	.	.	-6	-2	-5	-4	.	.
CC(=O)Nc1ccc(S(=O)(=O)NCC(=O)NNC(=O)COc2ccccc2Cl)cc1	.	i	-12	1	3	2	-19	.
CC(C)C(NC(=O)C1(NC(=O)OCc2ccccc2)CCCC1)C(=O)O (stereo unspecified)	.	.	-11	2	-2	.	18	.
COc1cc(CC(=O)N(c2ccccc2)c2nc(C)cs2)cc(OC)c1OC	-1	i	.	-2	-1	5	-8	13
COc1ccc(-n2ncc3c2CC(C)(C)CC3NC(=O)C2=CC(=O)CC(C)(C)O2)cc1 (stereo unspecified)	.	i	-18	0	1	-6	12	.
CCN1C[C@@H]2[C@@H]3C(=O)N(Cc4ccccc4)C(=O)[C@@H]3[C@](CC)(C1=O)N2C(=O)c1ccc(F)cc1	.	.	-5	-2	6	.	1	.
CC#CC(=O)NC1CCCN(C2Cc3ccccc3C2)C1 (stereo unspecified)	0	i	-14	-3	4	-2	27	8
